Source: PubChem BioAssay
E coli growth: E. coli growth inhibition, primary screen, OD600; AID 1053175, 2014; OD600 absorbance (test concentration not listed); Escherichia coli growth, 23 h; hits give low values; 330,000 tested, 0.21% active;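 active = OD600 absorbance below the run mean of sample wells minus 3.6 SD, in any replicate, cut at about 0.56 in these data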;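 also: stock transfer was 300 nL into about 60 µL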
B2AR ag: beta2AR agonists driving receptor internalization, primary screen, cell-based, FAP fluorogen, flow cytometry; 340,000 tested, 0.43% active; Beta-2 adrenergic receptor (Homo sapiens), P07550; Am2.2-beta2AR cells; reference of the scale not given here; response, % (no concentration beside the values);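 active = response above a set limit, near 3 SD of response in nonfluorescent compounds, cut at about 42% in these data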;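 also: stock transfer was 100 nL into about 11 µL; a reference agonist was the positive control; negative values mostly stem from fluorescent compounds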
Target sequence (P07550 whole entry, looked up): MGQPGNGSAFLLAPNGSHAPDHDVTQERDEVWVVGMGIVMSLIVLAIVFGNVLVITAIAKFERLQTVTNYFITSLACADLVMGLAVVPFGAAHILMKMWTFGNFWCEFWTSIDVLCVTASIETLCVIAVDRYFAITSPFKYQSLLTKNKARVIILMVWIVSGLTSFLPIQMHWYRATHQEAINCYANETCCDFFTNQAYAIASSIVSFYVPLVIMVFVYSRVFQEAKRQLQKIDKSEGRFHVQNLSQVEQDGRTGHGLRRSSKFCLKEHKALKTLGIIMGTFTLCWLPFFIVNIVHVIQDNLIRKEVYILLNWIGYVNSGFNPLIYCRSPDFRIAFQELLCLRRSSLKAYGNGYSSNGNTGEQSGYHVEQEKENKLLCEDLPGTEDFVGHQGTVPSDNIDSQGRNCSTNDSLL
ALR inh: inhibitors of human ALR sulfhydryl oxidase, primary screen, biochemical, H2O2 detection, HRP-luminol luminescence, single point. inhibition, % (test concentration not listed). AID 485317, 2010. purified ALR, DTT oxidation. 290,000 tested, 3.8% active;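 active = mean and each replicate at 75% or more; inconclusive = only one of the two met; inactive = neither met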;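 also: stock transfer was 7.5 nL into about 7.5 µL; 0% = neutral wells and 100% = wells with inactivated enzyme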
Target sequence (P55789 whole entry, looked up): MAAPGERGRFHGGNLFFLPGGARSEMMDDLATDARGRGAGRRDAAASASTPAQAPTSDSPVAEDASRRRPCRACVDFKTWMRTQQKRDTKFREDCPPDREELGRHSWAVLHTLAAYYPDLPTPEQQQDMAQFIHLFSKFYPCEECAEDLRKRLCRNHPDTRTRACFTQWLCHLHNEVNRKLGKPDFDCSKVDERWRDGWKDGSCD
HNF4A DNA FP: change in binding of human HNF4A to DNA, primary screen, biochemical, fluorescence polarization, FITC-DNA; activity change, % at 10 µM; 360,000 tested, 0.3% active; 1 h; Hepatocyte nuclear factor 4-alpha (Homo sapiens), P41235; in the data active = activity change above about 30%, passing the limit was not always enough;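 also: controls were the assay level and a saturating level of protein; the project sought stronger binding though the title names inhibitors; some compounds called inactive have numbers as strong as hits; positive values seem to mean higher polarization but the record does not say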
FGF22 binding: binders of human FGF22 protein, primary screen, FGF22 synaptogenesis inhibitor project, biophysical, thermal shift, single point; Fibroblast growth factor 22 (Homo sapiens), Q9HCT0; recombinant FGF22 thermal shift, SYPRO orange fluorescence; percent of sucrose octasulfate shift, DMSO zero; calls only at 9.99 µM; 340,000 tested, 1.5% active; AID 651658, 2012;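 active = melting point raised past a set limit in the mean and every replicate; inconclusive = no clear call; three in four hits are not shown here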
UCH37 inh: inhibitors of human UCH37 deubiquitinase, primary screen, biochemical, Ub-AMC cleavage, fluorescence; AID 588478, 2011; Ubiquitin carboxyl-terminal hydrolase isozyme L5 (Homo sapiens), Q9Y5K5; 330,000 tested, 0.33% active; purified proteasome/UCH37; inhibition, % (no concentration beside the values);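 active = mean of two replicates above 20%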;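 also: 0% = compound-free wells with enzyme and 100% = wells lacking proteasome; stock transfer was 100 nL into about 20 µL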
Target sequence (Q9Y5K5 whole entry, looked up): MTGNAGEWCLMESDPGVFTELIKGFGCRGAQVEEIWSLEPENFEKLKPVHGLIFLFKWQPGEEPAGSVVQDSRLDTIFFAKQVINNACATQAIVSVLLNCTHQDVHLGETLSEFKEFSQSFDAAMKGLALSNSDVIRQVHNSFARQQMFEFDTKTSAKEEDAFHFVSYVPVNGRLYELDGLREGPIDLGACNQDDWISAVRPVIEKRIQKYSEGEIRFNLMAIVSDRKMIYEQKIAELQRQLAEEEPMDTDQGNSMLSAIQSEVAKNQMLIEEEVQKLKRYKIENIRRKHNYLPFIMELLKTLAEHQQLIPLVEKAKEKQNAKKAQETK
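system = Proteasome-associated human UCH37 deubiquitinase | amount = 0.15 nM proteasome as dispensed | medium = pH 7.4 Tris-HCl (50 mM) with ovalbumin, ATP-MgCl2, DTT | incubation = 30 min preincubation with enzyme, 25 min cleavage at room temperature | detection = AMC fluorescence 355/460 nm | read-out basis = percent inhibition | controls = no-proteasome and no-compound wells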
Ecoli rRNA inh: reduced GFP signal of wild-type E. coli, primary screen, bacterial rRNA inhibitor project, GFP/RFP fluorescence, OD600, single point; E. coli WT GFP vs humanized-ribosome RFP mutants, 24 h; hits give low values; DMSO median 0, no signal -100; GFP signal change (wild-type ribosome), % (test concentration not listed); 350,000 tested, 1.6% active; AID 720706, 2013;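 active = significant combined selectivity score with lowered wild-type GFP, culture density cut under 30%, mutant RFP and density less affected; inactive = any of these conditions unmet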; also: one replicate is shown; some compounds called inactive have numbers as strong as hits
Ecoli rRNA inh OD600: second read-out of Ecoli rRNA inh, no call of its own (marks repeat the call); OD600 change, %; measured here: OD600 growth;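 optical density of the mix in the first replicate; 0 = DMSO median and -100 = no signal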
Ecoli rRNA inh RFP: also measured in Ecoli rRNA inh; calls as there; RFP signal change, %; measured here: RFP humanized mutant strains;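 first replicate; 0 = DMSO median and -100 = no signal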
An asterisk follows results filed as active; i = inactive; u = inconclusive; x = no result given. These rows are one share of the data; the hit share may differ from the screen's.

SMILES	E coli growth	B2AR ag	ALR inh	HNF4A DNA FP	FGF22 binding	UCH37 inh	Ecoli rRNA inh	Ecoli rRNA inh OD600	Ecoli rRNA inh RFP
O=C(CCC(=O)N1CCN(c2cccc(Cl)c2)CC1)c1cccs1	0.646	4.6	38.4	2.3	i	4.3	-24.5	-24.4	-3.3
CN(Cc1cccs1)c1nc(-c2cccnc2)nc2ccccc12	0.668	102.7*	-19.2	-1.0	x	-0.9	-39.5	-45.5	-7.8
CN(c1nc2ccccc2nc1Cl)S(=O)(=O)c1ccccc1	0.658	-7.0	x	-2.7	i	0.5	-8.2	-27.8	0.4
COc1ccc(CC(N)c2csc(NC(=O)c3cc(C(C)(C)C)nn3Cc3ccccc3)n2)cc1 (stereo not drawn)	x	x	x	14.5	i	x	-6.7	0.2	5.1
Cc1ccc(NC(=O)[C@@H]2CCCN2S(=O)(=O)c2ccccc2F)cc1S(=O)(=O)N1CCOCC1	0.694	5.2	-5.1	1.5	x	-0.5	x	x	x
COC(=O)c1cccc(C(=O)N2CCCC(CCC(=O)N(C)CCc3ccccn3)C2)c1 (stereo not drawn)	0.727	-2.2	0.4	3.7	i	1.3	14.5	13.9	3.2
COc1ccc(C(CC(=O)Nc2cc([N+](=O)[O-])ccc2OC)c2ccccc2)cc1 (stereo not drawn)	0.706	-3.4	-8.8	-1.9	i	5.2	-7.5	-23.7	-4.1
Oc1ccc(N2CCN(c3ncnc4sc5c(c34)CCC5)CC2)cc1	0.666	-3.7	98.5*	-6.3	x	5.8	x	x	x
O=C(NCCCn1ccnc1)c1nn2c(C(F)(F)F)cc(-c3ccccc3)nc2c1Cl	0.684	-11.8	-12.5	-3.5	i	3.6	8.2	6.2	5.3
COc1ccc(CCN2C(=O)N[C@@H](CCC(=O)O)C2=O)cc1	0.636	-0.7	x	-1.1	i	0.0	3.5	7.0	0.8
COC(=O)c1nn(-c2ccc(C)cc2)ccc1=O	0.637	3.7	-2.6	1.3	i	0.6	16.9	16.8	2.2
COc1ccccc1NS(=O)(=O)c1cc(NC(=S)Nc2cc(C)cc(C)c2)ccc1Cl	0.705	6.2	-17.9	-4.4	i	5.5	1.0	4.1	9.7
O=C(CSC1=NS(=O)(=O)c2cc(Cl)ccc2N1)NCc1ccccc1	0.681	-6.4	39.7	-0.6	i	1.7	-2.5	-1.4	1.2
CN(CP(=O)(O)C(O)c1ccccc1)S(C)(=O)=O (stereo not drawn)	0.712	-2.7	x	-0.8	x	1.2	x	x	x
CSc1nnc(-c2ccccc2)c(=O)[nH]1	0.707	-4.0	2.9	1.3	x	6.0	x	x	x
CC(=O)c1ccc(N2CCN(C(=O)c3ccc(Cl)c(NC4=NC5CS(=O)(=O)CC5S4)c3)CC2)cc1 (stereo not drawn)	0.706	0.9	-0.7	3.8	i	2.4	16.2	10.4	0.1
Cc1cccc(NC(=O)Cn2cc([N+](=O)[O-])cn2)n1	0.72	3.1	-1.1	1.1	i	4.0	5.3	8.0	7.2
CCOC(=O)c1c(C)c(C(=O)NCCCOC)c(C)n1C	0.631	0.0	-15.0	5.0	x	1.1	x	x	x
O=C(CC1(O)C(=O)Nc2ccccc21)c1ccc(-n2cccc2)cc1 (stereo not drawn)	0.682	-9.8	-3.3	1.7	x	0.8	x	x	x
CC1(C)CC(=O)C=C(c2cccc(Br)c2)C1	0.771	-11.6	-12.8	0.4	i	3.8	9.9	12.8	7.5

Copied from the list.
Under Ecoli rRNA inh OD600, CN(Cc1cccs1)c1nc(-c2cccnc2)nc2ccccc12 has the entry -45.5
Under UCH37 inh, CSc1nnc(-c2ccccc2)c(=O)[nH]1 has the entry 6.0

Other records follow.
SMILES	E coli growth	B2AR ag	ALR inh	HNF4A DNA FP	FGF22 binding	UCH37 inh	Ecoli rRNA inh	Ecoli rRNA inh OD600	Ecoli rRNA inh RFP
NC(=O)C1=C[C@@H](c2coc3ccccc3c2=O)C[C@@H](OCCCCO)O1	x	-0.2	-0.7	-0.4	i	0.6	5.7	-3.7	-0.1
Cc1noc(NS(=O)(=O)c2ccc(NC(=O)C(Cl)(Cl)Cl)cc2)c1C	0.665	2.1	20.9	2.2	i	0.8	-3.9	-1.3	-2.3
NC(=O)C1CCN(c2nc(-c3cccc(Cl)c3)cs2)CC1	0.656	-1.4	73.3	-1.5	i	1.6	0.3	7.8	13.0
CSc1ccc(S(=O)(=O)N2CCC(C(=O)NCC3CCCO3)CC2)cc1 (stereo not drawn)	0.693	155.2*	-85.0	1.4	i	6.8	5.5	6.3	-1.1
CC1(C(=O)NCCc2c[nH]c3ccccc23)C=CCN1C(=O)c1ccccc1 (stereo not drawn)	0.763	-5.4	13.0	-0.3	i	-1.0	3.5	23.5	14.2
Cc1cccc(CN2CCN(C3CN(Cc4cn(Cc5cc(C)cc(C)c5)nn4)S(=O)(=O)C3)CC2)c1 (stereo not drawn)	x	x	x	0.2	i	x	-19.8	-25.5	-0.5
CCc1ccc2c(c1)C(c1ccc([N+](=O)[O-])cc1)=NNC(c1ccccc1)=N2	0.691	-14.5	x	0.7	x	-0.4	x	x	x
COc1cccc(N2CCN(C(=O)C3CCCN(c4ncnc5c4nc4n5CCCCC4)C3)CC2)c1 (stereo not drawn)	0.661	7.1	7.6	1.3	i	3.1	-28.3	-24.8	-2.5
CCN(CCCNC(=O)CN1C(=O)COc2ccccc21)c1ccccc1	0.7	-8.4	98.8*	-2.6	x	2.4	x	x	x
COc1ccc(N2C(=O)CC(N3CCN(S(=O)(=O)c4c(F)cccc4F)CC3)C2=O)cc1OC (stereo not drawn)	0.734	5.6	x	-3.4	x	0.2	x	x	x
O=C(N/N=C/c1ccco1)c1cccc(N2Cc3ccccc3C2)c1	x	-1.9	-6.6	-36.3	i	x	-3.4	6.5	0.1
CCc1cc(=O)oc2c(CN3CCCC3)c(O)c(Cl)cc12	0.667	-8.9	5.1	-3.9	x	i	x	x	x
Cc1ccc(S(=O)(=O)NC(C)C(=O)N2CCOCCOCCOCCOCC2)cc1 (stereo not drawn)	0.671	-5.1	-8.0	-1.4	i	0.7	2.5	2.6	-2.5
c1cncc(-c2nc(-c3ccco3)cs2)c1	0.721	0.1	u	0.7	x	0.9	x	x	x
C#CCOCCOCCOCCNc1nc(N2CCN(C(=O)Cn3cc(CC(C)O)nn3)CC2)nc(N2CCN(C(=O)[C@H](C)n3cc(CCC(=O)O)nn3)CC2)n1 (stereo partly drawn)	x	-2.5	x	-0.8	i	x	23.1	11.0	1.0
CCc1cc(C(=O)Nc2cc(S(=O)(=O)N(CC)CC)ccc2N2CCOCC2)sc1C	0.666	5.9	x	2.1	i	-2.3	2.2	6.2	30.8
CCOC(=O)c1cccc(P(=O)(C(C)(C)C)C(C)(C)C)c1	x	-4.1	4.9	1.1	i	3.9	15.1	9.3	-0.6
Cc1ccc(-c2csc3ncnc(N4CCN(C(=O)c5ccccc5)CC4)c23)cc1	0.696	4.5	-4.5	0.3	x	1.2	x	x	x
Cc1ccc(S(=O)(=O)N2CCC(C(=O)OC(C)C(=O)NC(N)=O)CC2)cc1C (stereo not drawn)	0.682	-10.9	-10.9	-2.0	i	0.6	10.8	6.4	-2.6
O=C(O)c1cnc(-c2ccccc2)nc1Sc1ccccc1Cl	0.711	0.5	98.2*	-2.1	x	-0.3	x	x	x

Four entries already listed, arranged by number of heavy atoms, falling:
SMILES	E coli growth	B2AR ag	ALR inh	HNF4A DNA FP	FGF22 binding	UCH37 inh	Ecoli rRNA inh	Ecoli rRNA inh OD600	Ecoli rRNA inh RFP
COc1cccc(N2CCN(C(=O)C3CCCN(c4ncnc5c4nc4n5CCCCC4)C3)CC2)c1 (stereo not drawn)	0.661	7.1	7.6	1.3	i	3.1	-28.3	-24.8	-2.5
Cc1ccc(S(=O)(=O)NC(C)C(=O)N2CCOCCOCCOCCOCC2)cc1 (stereo not drawn)	0.671	-5.1	-8.0	-1.4	i	0.7	2.5	2.6	-2.5
COc1ccc(CCN2C(=O)N[C@@H](CCC(=O)O)C2=O)cc1	0.636	-0.7	x	-1.1	i	0.0	3.5	7.0	0.8
CN(CP(=O)(O)C(O)c1ccccc1)S(C)(=O)=O (stereo not drawn)	0.712	-2.7	x	-0.8	x	1.2	x	x	x

Other records follow.
SMILES	E coli growth	B2AR ag	ALR inh	HNF4A DNA FP	FGF22 binding	UCH37 inh	Ecoli rRNA inh	Ecoli rRNA inh OD600	Ecoli rRNA inh RFP
CCCCC(C(=O)O)C(C)CC(=O)Nc1ccn(-c2ccccc2)n1 (stereo not drawn)	0.694	-3.2	-26.6	3.1	x	3.3	x	x	x
CCn1c(SCC(=O)Nc2ccc3c(c2)OCO3)nnc1C1CC1	0.685	1.3	-6.3	4.0	i	4.2	4.9	11.2	0.3
Cc1cccc(C)c1NC(=O)NC1(C(=O)NCCCN2CCOCC2)CCCCC1	0.735	-2.1	-5.6	0.8	x	3.3	x	x	x
Cn1c(=O)c2c(nc(N3CCOCC3)n2C/C=C/c2ccccc2)n(C)c1=O	0.704	-11.7	2.5	0.5	i	5.8	-18.4*	-2.6*	1.9*
CCCCNC(=O)CNC(=S)N(CCCN1CCOCC1)Cc1cccs1	0.678	-2.2	-7.4	0.9	i	0.6	-3.6	12.2	-0.6
Cn1ccnc1SCc1cc(=O)[nH]c2ccccc12	0.671	1.7	-18.2	1.8	i	6.5	7.6	3.7	1.6
Cn1c(N)c(C(=O)COC(=O)CCOc2ccc(C(C)(C)C)cc2)c(=O)n(C)c1=O	0.693	0.9	-2.4	3.4	i	0.6	-15.0	-13.9	1.0
O=C(NCCCc1ccccc1)Nc1ccccc1	0.691	-12.2	-0.4	0.8	x	0.7	x	x	x
O=C(Cc1ccccc1)N[C@@H](Cc1ccccc1)c1nc2ccccc2[nH]1	0.715	-3.9	-12.2	3.9	x	4.0	x	x	x
CCN(C(=O)COC(=O)CNC(=O)c1cccc(C)c1)c1c(N)n(Cc2ccccc2)c(=O)[nH]c1=O	0.668	-13.1	-4.0	-2.9	i	0.8	7.5	19.8	0.2
CC1CCN(c2ccccc2NC(=O)c2ccc(C#N)cc2F)CC1	0.699	-10.5	-21.1	-1.0	i	-10.2	9.0	23.1	3.6
C/C(=N\NC(=O)CNc1ccccc1)c1ccccc1	x	10.1	0.3	-2.4	i	x	7.3	6.4	0.2
CNS(=O)(=O)c1cc(N(C)S(=O)(=O)c2ccc(C)cc2)c(C)cc1C	0.716	4.7	-5.6	3.5	x	3.4	-44.6*	-32.7*	-9.3*
Cc1ccccc1NC(=O)COC(=O)CNC(=O)c1sc2ccccc2c1Cl	0.661	4.7	-0.6	-3.9	i	-0.7	-1.6	2.3	-2.8
CC1CN(C(=O)c2cc3cc([N+](=O)[O-])ccc3oc2=O)CC(C)O1 (stereo not drawn)	0.693	-2.1	-8.3	2.4	i	7.2	10.9	12.0	-1.8
COC(=O)C(=Cc1ccc(OCc2ccc([N+](=O)[O-])cc2)c(OC)c1)C(=O)OC	0.75	3.2	x	-1.3	x	3.9	x	x	x
CCn1c(=S)sc2c(=O)n(CC(=O)Nc3ccc(OC)c(Cl)c3)c(C)nc21	0.701	1.5	-7.6	1.4	i	1.6	5.1	14.6	3.1
Cc1ccc(NC(=O)CCc2ccccc2)cc1C	x	x	x	0.5	i	x	-11.9	-20.1	-0.5
